Source: PubChem BioAssay
AmpC nodet inh = Promiscuous and Specific Inhibitors of AmpC Beta-Lactamase (assay without detergent); P00811; AmpC nitrocefin hydrolysis, absorbance 480 nm, no detergent; potencies from a single point are estimates; Potency, µM (titrated, usually from 28.7 µM), for the others: at the highest dose activity change, negative = inhibition; 1.8% of 71,000 active; active = falling curve, for most hits resting on a single point; inconclusive = weak or doubtful change; inactive = flat or rising curve; also: % of control where 0% means no effect; about half of the hits show no inhibition at the top dose; a quarter of the inactives give rising signals
Target sequence (P00811 whole entry, looked up): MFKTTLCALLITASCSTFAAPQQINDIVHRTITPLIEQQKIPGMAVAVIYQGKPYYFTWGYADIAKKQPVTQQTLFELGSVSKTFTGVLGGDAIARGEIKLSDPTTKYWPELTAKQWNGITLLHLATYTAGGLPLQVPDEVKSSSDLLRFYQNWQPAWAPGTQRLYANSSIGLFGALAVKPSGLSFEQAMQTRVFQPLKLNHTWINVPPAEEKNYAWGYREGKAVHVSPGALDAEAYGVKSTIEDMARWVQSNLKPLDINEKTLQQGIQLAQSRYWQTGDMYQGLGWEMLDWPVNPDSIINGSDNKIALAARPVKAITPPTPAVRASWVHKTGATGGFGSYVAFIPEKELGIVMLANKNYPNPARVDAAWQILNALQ
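AmpC in 20 mM phosphate buffer pH 7.0 was preincubated 15 min at room temperature with compounds. Nitrocefin (800 uM stock) was then added and hydrolysis followed at 480 nm every 20 s for 4 min.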
Numbers without * were called inactive; u = inconclusive; & = joins results of further samples; [ ] = remark or other dose. Potency is read from the fitted curve at half-maximal effect.

Structure,AmpC nodet inh
Cc1nc2sc(C(c3ccco3)N3CCC(Cc4ccccc4)CC3)c(O)n2n1 (centres undefined),-16.0%
O=C(CSCCO)Nc1nccs1,1.5%
CC1CCc2c(C(=O)NCCN3CCOCC3)csc2C1 (centres undefined),3.8%
COc1ccc(CCNC(=O)Cn2nnc(-c3ccc(N4CCOCC4)cc3)n2)cc1OC,-1.3%
CS(=O)(=O)N1CCC2(CCN(C(c3ccccc3)c3ccccc3)CC2)CC1,79.8%
c1cncc(-c2nc(-c3cccs3)cs2)c1,6.3%
Cn1c(=O)n(CC(=O)Nc2ccc(F)cc2)c2ccccc21,2.5%
O=C(c1ccccc1)c1nc2ccccc2[nH]c1=O,-14.5%
Cc1ccc(C2NC(=O)c3ccccc3N2)s1 (centres undefined),-13.8%
COc1ccc(NC(C)c2cc(Cl)ccc2O)cc1 (centres undefined),-5.8%
COc1cccc(Cn2c(=O)c(C)nc3cnc(OC)nc32)c1,35.6%
O=C(CCn1c(=O)oc2ccccc21)NC1=NCCS1,-13.7%
COc1ccc(N2CCN(C(=O)CN(c3ccc(Br)cc3)S(C)(=O)=O)CC2)cc1,108.3%
CCN(CCCNC(=O)CC(C(=O)N1CCc2ccccc21)n1ccnc1)c1cccc(C)c1 (centres undefined),97.6%
O=C(CCN1C(=O)C2C3C=CC(C3)C2C1=O)Nc1ccccn1 (centres undefined),-1.6%
O=C(c1ccc(F)cc1)N1CCC(O)(c2cccnc2)CC1,-12.2%
O=C(Nn1c(C2CC2)nc2ccccc2c1=O)c1ccco1,-3.6%
Cc1noc(C)c1COC(=O)Cn1c(C)nc2ccccc21,9.2%
CSCC[C@@H](C(=O)O)N1Cc2ccccc2C1=O,5.8%
Cc1cc(N2CCCCC2)n2ncc(-c3ccccc3)c2n1,15.3%
CC1=C(C(=O)Nc2ccccc2)C(c2ccco2)C(C#N)=C(SCc2ccccc2)N1 (centres undefined),5.01µM*
CC1(C)CC(=O)C(C=NC2CCCCC2)=C(O)C1,7.5%
Cc1nc(-n2cc(F)c(=O)[nH]c2=O)c2nc(C)oc2n1,-6.6%
Cc1c(C(=O)N2CCC3(CC2)OCCO3)oc2ccc(S(=O)(=O)N3CCOCC3)cc12,53.7%
COc1ccc(CCNC(=O)C2CCN(S(=O)(=O)N3CC(C)CC(C)C3)CC2)cc1OC (centres undefined),82.8%

More structures:
Structure,AmpC nodet inh
CCOc1ccc(NC(=O)CN(C)CC(=O)Nc2ccccc2C#N)cc1OCC,43.2%
COc1cccc(-c2cc(C(=O)Nc3ccccc3SC)no2)c1,3.0%
O=C(Cl)C(Cl)(Cl)Cl,-4.1%
Cc1nc2cnc(N3CCOCC3)nc2n(Cc2ccc(F)cc2)c1=O,3.4%
CCC(C)(C(=O)NC1CCCCC1)N(Cc1ccco1)C(=O)c1cnccn1 (centres undefined),7.5%
Cc1ccc(CNc2ncc(-c3ccc4c(c3)OCO4)n2C)cc1,7.6%
C=CCOc1cccc(C2/C(=C(\O)c3ccc(F)cc3)C(=O)C(=O)N2CCN(C)C)c1 (centres undefined),4.3%
CCC(c1nnnn1CCc1ccccc1)N(Cc1ccco1)Cc1cc2cccc(C)c2[nH]c1=O (centres undefined),49.8%
O=C(Nc1nnc(CC(=O)N2CCOCC2)s1)c1cccs1,3.4%
O=C(Nc1cccc(F)c1)N1CCCC2(CCN(C(=O)c3csnn3)CC2)C1,-8.3%
Cc1cccc(CNc2ccnc(-c3ccccc3CN(C)C)n2)c1,62.1%
CCOc1ccccc1N(CC(=O)NC(C)(C)C)C(=O)Cn1nnc(-c2ccc(C)o2)n1,49.2%
COC(=O)c1ccc(Cn2cnc3ccccc3c2=O)cc1,0.0%
CN(C)CCNC(=O)Cn1nc(C(F)F)cc1C1CC1,-4.9%
CCNc1ncc2nc(-c3cc(F)cc(F)c3)c(=O)n(C[C@H]3CCCO3)c2n1,-1.2%
CCC(C)(C(=O)NC1CCCC1)N(C(=O)c1cnccn1)c1ccccc1 (centres undefined),18.9%
Cc1ccc(N(CC(=O)Nc2cccc(C)c2)S(=O)(=O)c2cccc3nonc23)cc1,-19.3%
O=C(O)[C@H]1CCCN(CCC=C(c2ccccc2)c2ccccc2)C1,57.9%&22.2%
NC(=O)CSc1nnc(Cc2ccc3c(c2)OCO3)n1C1CCCCC1,24.9%
COc1cc(OC)c(C2N(c3ccc(Cl)c(Cl)c3)C(=O)C3CCCN32)cc1OC (centres undefined),136.6%
N#CCCN1CCN(Cn2c3ccccc3c3ccccc32)CC1,100.2%
COCCNC(=O)NC(=O)COC(=O)Cc1ccc2c(c1)OCCO2,-0.4%
COc1cc(C)c(S(=O)(=O)NCc2ccc3c(c2)OCO3)cc1C,3.16µM*[single pt active]
CCn1cc(C(=O)OCC(=O)Nc2ccc(S(=O)(=O)N3CCCC3)cc2)c(=O)c2ccc(C)nc21,67.8%
Cc1[nH]c(=O)c(C#N)c(C)c1Br,1.8%

Additional entries follow.
Structure,AmpC nodet inh
Cn1c(=S)c2[nH]c(SCCN3C(=O)c4ccccc4C3=O)nc2n(C)c1=O,-5.7%[5.75 µM]
CCCCNC(=O)CSc1nc2cc3c(cc2c(=O)n1CCCN(CC)CC)OCO3,13.0%
CCN1/C(=C/C(=O)c2ccco2)Sc2ccccc21,-5.8%
CCS(=O)(=O)N1Cc2ccccc2CC1C(=O)N1CCN(c2cccc(C)c2C)CC1 (centres undefined),61.2%
Cn1c(CSc2nnc(SCc3ccccc3)s2)nc2ccccc21,21.4%
CCCN(CCC)CCNC(=O)c1cc2c(C)nc3ccccc3c2o1,3.5%
COc1cccc(NC(=O)c2nnn(Cc3ccc(Br)cc3F)c2N)c1,u
O=C1c2ccccc2C(=O)N1CCCC(=O)N1CCCc2ccccc21,31.4%
COC(=O)CN1C(=O)C2(C(C#N)=C(N)Oc3cc(C)oc(=O)c32)c2ccccc21 (centres undefined),10.2%
COc1ccc(Cl)cc1NC(=O)CN(C(=O)c1ccco1)C1CCCCC1,68.3%
O=C(Nc1ccc(N2CCN(C(=O)c3ccco3)CC2)c(Cl)c1)c1cc2ccccc2o1,18.2%
COc1ccc(Oc2ncc3ncc(=O)n(C4CC4)c3n2)cc1,18.4%
O=C(Nc1ccc2c(c1)OCO2)c1ccccc1SCC(=O)N1CCCC1,5.5%
Cc1csc2ncc(C(=O)NCc3ccccc3Cl)c(=O)n12,65.3%
Cc1ccc2nc(SC(C)C(=O)N3CCCC3)[nH]c2c1 (centres undefined),-1.5%
Cc1ccc(-c2nnn(CC(=O)N(c3ccccc3)C(C(=O)NC3CCCC3)c3ccco3)n2)o1 (centres undefined),-0.1%
C=CCn1c(COc2ccc(Cl)cc2)nnc1SCC(=O)N1CC(=O)Nc2ccccc21,77.6%
CC(C)N(Cc1nc(-c2ccccc2)no1)C(=O)CCCN1C(=O)c2ccccc2C1=O,95.6%
Cc1c(NC(=O)C(C)Oc2ncnc3ccccc23)c(=O)n(-c2ccccc2)n1C (centres undefined),-2.1%
Cc1cc(N(C)C)c(C#N)c(=O)[nH]1,2.7%
C/C=C(\CS(=O)(=O)c1ccccc1)S(=O)(=O)c1ccccc1,-18.1%
c1ccc2c(c1)oc1c(NCCCN3CCOCC3)ncnc12,41.7%
CCCc1nnc(SCc2ccc(OC)cc2)n1N,1.3%
CCOC(=O)C1CCN(C(c2cc3cc(C)cc(C)c3[nH]c2=O)c2nnnn2C2CCCCC2)CC1 (centres undefined),30.3%
O=C(Nc1ccc(C(=O)N2CCOCC2)cc1)c1cccs1,0.1%

Reprinted from the part before: 7 compounds, then new ones.
Structure,AmpC nodet inh
Cc1c(NC(=O)C(C)Oc2ncnc3ccccc23)c(=O)n(-c2ccccc2)n1C (centres undefined),-2.1%
Cc1cc(N(C)C)c(C#N)c(=O)[nH]1,2.7%
C/C=C(\CS(=O)(=O)c1ccccc1)S(=O)(=O)c1ccccc1,-18.1%
c1ccc2c(c1)oc1c(NCCCN3CCOCC3)ncnc12,41.7%
CCCc1nnc(SCc2ccc(OC)cc2)n1N,1.3%
CCOC(=O)C1CCN(C(c2cc3cc(C)cc(C)c3[nH]c2=O)c2nnnn2C2CCCCC2)CC1 (centres undefined),30.3%
O=C(Nc1ccc(C(=O)N2CCOCC2)cc1)c1cccs1,0.1%
O=C(C1CCCN(S(=O)(=O)c2cccc3cccnc23)C1)N1CCN(c2ccc(F)cc2)CC1 (centres undefined),113.6%
COc1ccc(Cl)cc1N1CC(C(=O)Nc2nccs2)CC1=O (centres undefined),11.6%
c1ccc(-c2nc3nonc3nc2-c2ccccc2)cc1,-7.0%
CCC(=NCCO)c1c(O)n(-c2ccc(Cl)cc2)c(=O)[nH]c1=O,3.1%
c1cc2c(cc1C1CCCCC1)c1c3n2CCN[C@H]3CCC1,162.3%
COc1cc(C(=O)Nc2ccc(-c3nc4cc(C)ccc4o3)c(O)c2)cc(OC)c1OC,73.5%
COCCNC(=O)CN(C(=O)CCC(=O)Nc1cc(C)on1)c1ccc(C)cc1C,38.8%
O=C(O)CCc1ccc(-c2ccccc2)n1-c1cccc(O)c1,-15.2%
O=C(CSc1ccccc1)Nc1ccncc1,-23.0%
CC(=O)OCCNC(=O)c1cc2ccccc2oc1=O,4.2%
C[C@@H](C(=O)NCC1CC1)[C@H]1C[C@]1(C)[C@H](NC(=O)OCc1ccccc1)c1ccccc1,71.0%
CCOC(=O)N1CCN(C(=O)c2ccc3c(=O)n(CCC4=CCCCC4)c(=S)[nH]c3c2)CC1,3.4%
COc1ccc(C(=O)n2nc(C)cc2C)cc1OC,10.9%
Cc1nc2c(s1)sc1ccccc12,-3.9%
CCOCCOC(=O)C1=C(C)NC2=C(C(=O)CC(c3cccs3)C2)C1c1ccsc1 (centres undefined),29.5%
O=C(c1cncc(Br)c1)N1CCN(c2ccc(N3CCOCC3)nn2)CC1,17.3%
Cc1nc(N2CCN(C(=O)c3ccco3)CC2)c2c3c(sc2n1)CCC3,75.5%
Cc1onc(-c2ccccc2)c1C(=O)Nc1cccc(OC(C)C)c1,22.9%
COc1ccc(NC(=O)N2CCCC2)cc1OC,2.1%
COc1ccc(C(=O)CSc2nc3nc(C)cc(C)n3n2)cc1OC,27.9%
COCCCN1C(=O)C(=O)/C(=C(/O)c2ccc(OCC(C)C)cc2)C1c1cccnc1 (centres undefined),-1.4%
CCOc1cccc2cc(C(=O)N3CCc4ccccc43)c(=O)oc12,21.3%
CN(C(=O)c1ccno1)c1nnc(-c2ccccn2)s1,7.1%
CCOC(=O)CNC(=O)Cn1c(C)cc2ccccc2c1=O,0.9%
CC(=O)C1=C(C)Nc2ncnn2C1c1ccc(Cl)cc1 (centres undefined),19.7%

Further results
Structure,AmpC nodet inh
Cc1cc(NC(=O)CSc2nnc(-c3ccc4c(c3)OCCO4)o2)no1,49.2%
Cc1cc(C)c2c(=O)n(CC(=O)NCCCN3CCN(c4ccccc4F)CC3)sc2n1,102.9%
CCNc1ncc2nc(CCc3ccccc3)c(=O)n(C[C@H]3CCCO3)c2n1,6.2%
O=C(Cc1ccccn1)Nc1ccccc1,-11.3%
O=C(CN1C(=O)c2cccc3cccc1c23)NCc1ccc2c(c1)OCO2,13.1%
COc1ccc(NC2CS(=O)(=O)CC2OC(=O)c2ccc(F)cc2)cc1 (centres undefined),7.3%
COc1ccccc1N1CCN(CC(=O)c2c(C)[nH]c3cc(C)ccc23)CC1,67.1%
CC(C)Cc1cc(C(=O)NCCCN2CCOCC2)no1,4.3%
O=c1c2c([nH]c3ccc(Br)cc13)CCCC2,-15.7%
CC(C)C12CN3CC(C(C)C)(CN(C1)C3c1ccccc1O)C2=O (centres undefined),26.2%
NS(=O)(=O)c1ccc(CCNC(=O)c2ccccc2F)cc1,-11.3%
CCOC(=O)C1CCN(C(=O)CN(c2ccc(OC)c(OC)c2)S(=O)(=O)c2ccccc2)CC1,106.5%
N/C(=N\O)c1cn([C@@H]2O[C@@H](CO)[C@H](O)[C@@H]2O)c2ncnc(NO)c12,-15.5%[5.75 µM]
O=C(CSc1nnnn1-c1ccccc1Cl)Nc1ccc2c(c1)OCCO2,4.4%
CC(=O)Nc1ccc(C(=O)n2nc(C)cc2C)cc1,7.3%
O=C1C(C=NCc2cccnc2)=C(O)c2ccccc21,-3.5%
Cc1cc(C)c(S(=O)(=O)Nc2cccnc2)c(C)c1,13.2%
O=C(c1ccccc1F)N(Cc1ccc(F)cc1)C1CCS(=O)(=O)C1 (centres undefined),20.6%
O=C(NCc1ccc2c(c1)OCO2)C1CCC(CNc2c(N3CCCCC3)c(=O)c2=O)CC1 (centres undefined),3.98µM*[single pt active]
COC(=O)c1[nH]c2cccc(Cl)c2c1NC(=O)CN1CCN(CCO)CC1,-5.2%
CN(C)C(CNC(=O)CN1C(=O)NC2(CCc3ccccc32)C1=O)c1ccco1 (centres undefined),9.7%
CN(C)c1ccc(NC(=O)c2cc3c(=O)n4ccccc4nc3n2C)cc1,58.0%
c1ccc(C2=Nn3c(nnc3-c3cccnc3)SC2)cc1,-9.4%
Cc1cc(F)c(F)c(C(=O)N2CCN(C)CC2)c1Cl,5.5%
Cc1cccc(CCNC(=O)C2CCCN(S(=O)(=O)c3cnc[nH]3)C2)c1 (centres undefined),8.7%
CCO,-15.3%
COc1ccc(C2C(C(=O)NCCN(C)C)c3ccccc3C(=O)N2C)cc1OC (centres undefined),-9.7%

Only part of the results is shown; the hit share may differ from the screen's.
